# From PubChem BioAssay
# Mtb growth: Mycobacterium tuberculosis H37Rv growth inhibition, putative kinase inhibitor library, confirmatory dose response (AID 2842). inhibition, % at 10 µg/mL; hits with a dose series show IC90 in µg/mL. M. tuberculosis H37Rv growth inhibition; higher % means a stronger effect; some inactives read as strong as hits. hit rate 5.2% among 24,000;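 active = confirmed in a dose series; about a fifth of its hits are not listed in these tables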;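 also: bacteria incubated one week before Alamar blue readout; 0% = bacteria only wells and 100% = bacteria with high antibiotic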
# * hit, by the source's call.
mol | Mtb growth
Cc1cccc(NC(=O)CS(=O)(=O)c2cn(C)c3ccccc23)c1C | 98%
COc1ccc(C(=O)Nc2nc3c(cc4c5c(cccc53)CC4)s2)cc1 | -4%
COc1ccc(C(=O)Oc2coc(CSc3nnc(NC(=O)C4CC4)s3)cc2=O)cc1OC | -6%
O=C(Nc1nc(-c2cccnc2)cs1)C1COc2ccccc2O1 (stereo unspecified) | 4%
Cc1cccc(-n2nnc3c(=O)n(CC(=O)Nc4cccc(Cl)c4)cnc32)c1 | 3%
CC(=O)Nc1ccc(S(=O)(=O)N2CCSC2c2ccc(OCc3ccccc3)cc2)cc1 (stereo unspecified) | -9%
Cc1ccccc1CSc1nc(N)c(NC(=O)c2ccco2)c(=O)[nH]1 | 0%
Cc1ccccc1C(=O)Nc1nnc(-c2ccc(Cl)cc2)s1 | 18%
COC(=O)Nc1ccc(S(=O)(=O)N2CCN(C)CC2)cc1 | 4%
CCCn1c2c(c(=O)[nH]c1=O)C(c1cccc(F)c1)C1=C(COC1=O)N2 (stereo unspecified) | -3%
COc1cc(OC)cc(C(=O)NCCSc2ncc(-c3ccccc3)[nH]2)c1 | 2%
CC1CCN(c2nc3c(c(=O)[nH]c(=O)n3C)n2Cc2ccccc2Cl)CC1 | -4%
O=C(Nc1ccc([N+](=O)[O-])cc1)c1oc2ccccc2c1NC(=O)C1CC1 | 3%
COc1cc(OC)cc(C(=O)NCCc2cc3ccc(OC)cc3[nH]c2=O)c1 | 10%
Cc1cc(OC(=O)c2ccc(C)c(C)c2)c([N+](=O)[O-])c(=O)[nH]1 | 11%
Cc1cccc(Cn2cc(C(=O)c3ccccc3)c(=O)c3cc(C)ccc32)c1 | 35%
Cc1ccc(NC(=O)c2cn(C)cc3c(=O)n(-c4ccccc4)nc2-3)cc1F | -4%
CN1C(=O)NC(c2cccc(Cl)c2)C2=C1CC(C)(C)CC2=O (stereo unspecified) | 4%
CC(CSc1nc2ccccc2s1)Cn1c(N2CCOCC2)nc2c1c(=O)[nH]c(=O)n2C (stereo unspecified) | 0%
Cc1ccc(-c2nnc3ccc(SCC(=O)NCc4ccc(F)cc4)nn23)cc1 | 6%
Cc1cc(NC(=O)CSc2nnc(-c3c[nH]c4ccccc34)n2C)no1 | -20%
Cn1c(=O)[nH]c(=O)c2c1nc(Sc1nc3ccccc3[nH]1)n2CCCc1ccccc1 | 10%
Cc1ccc(-c2nnc3c4cc5c(cc4n(Cc4ccc(F)cc4)cc2-3)OCCO5)cc1C | 36%
C/C(=N\Nc1nc(=O)[nH]nc1C)c1ccccc1[N+](=O)[O-] | 1%
CC(=O)c1ccc(NC(=O)CSc2nc(C)nc3c2c(=O)n(C)c(=O)n3C)cc1 | -1%
NC(=O)c1c(NC(=O)c2cc(=O)c3ccccc3o2)sc2c1CCCCC2 | 2%
Cc1ccc(-c2nnc3ccc(SCC(=O)Nc4ccc(C)c(Cl)c4)nn23)cc1 | -1%
Cc1ccc(-c2n[nH]n3c2nc(=O)c2cc(Cl)ccc23)cc1 | 1%
O=C(CSc1c[nH]c2ccccc12)Nc1ccc(Br)cc1 | 3.2µg/mL*
CCOc1ccc(-n2c(SCC(N)=O)nc3c(c2=O)SCC3)cc1 | 6%
O=C(Nc1ccc2oc(=O)ccc2c1)c1ccc(F)cc1 | -14%
CN1CCc2c(sc(NC(=O)c3cc4cc([N+](=O)[O-])ccc4s3)c2C(N)=O)C1 | 7%
Cc1cccc(C(=O)Nc2sc3c(c2C#N)CC(C)CC3)c1 (stereo unspecified) | -4%
O=C(CC(c1ccccc1)c1ccccc1)Nc1c(C(=O)Nc2cccc(F)c2)oc2ccccc12 | 0%
O=C(CSC1=NS(=O)(=O)c2cc(F)ccc2N1)NC1CCCC1 | -10%
O=C(CSc1n[nH]c(=O)[nH]c1=O)N/N=C/c1ccc(C(F)(F)F)cc1 | -16%
Cc1ccc(Cn2c(SCC(N)=O)nc3c(oc4ccccc43)c2=O)cc1 | -9%
CCOc1ccc(C(=O)c2cn(Cc3cccc(C)c3)c3cc4c(cc3c2=O)OCCO4)cc1 | 60%
O=C(CN1CCOCC1)Nc1ncc(Cc2cc(Cl)cc(Cl)c2)s1 | 15µg/mL*
CC(Sc1n[nH]c(=O)[nH]c1=O)C(=O)Nc1ccc(F)cc1 (stereo unspecified) | -6%
O=C(Nc1nnc(C2=COCCO2)o1)c1cccc(Cl)c1 | 3.5µg/mL*
CN(c1ccccc1)S(=O)(=O)c1ccc(C(=O)Nc2nc(-c3ccc(Cl)cc3Cl)cs2)cc1 | 18%
O=C1CC(NS(=O)(=O)c2ccc(Br)cc2)CN1c1ccc2c(c1)OCCO2 (stereo unspecified) | 0%
O=C(CSc1ccc(-c2ccc(-n3ccnc3)cc2)nn1)NC1CCCC1 | -13%
CCOc1cc(C(=O)Nc2cccc3c2C(=O)NC3=O)cc(OCC)c1OCC | -11%
CCOC(=O)c1sc(NC(=O)c2ccc(Br)cc2)nc1C | -5%
COc1cc(/C=N/Nc2nccc(=O)[nH]2)cc(OC)c1OC | -1%
Cc1ccc(Cl)cc1-n1ncc2c(NNC(=O)c3ccc(Cl)cc3Cl)ncnc21 | -1%
CCOC(=O)CCC(=O)Nc1c(C(=O)Nc2cccc(Cl)c2)oc2ccccc12 | -3%
Cc1ccc(-c2c3c(nc4sc(C(=O)c5ccc(Cl)cc5)c(N)c24)CCCC3)o1 | 0%

# (listing goes on)
mol | Mtb growth
Cn1c(=O)n(CC(=O)O)c(=O)c2c1nc1n2CCCN1c1ccccc1 | -6%
CCS(=O)(=O)Nc1cccc(C2=NN(C(C)=O)C(c3cccc([N+](=O)[O-])c3)C2)c1 (stereo unspecified) | 2%
O=C(Nc1nnc(C23CC4CC(CC(C4)C2)C3)s1)c1cc(Br)ccc1Cl | 0%
CCc1nnc(NC(=O)c2cccc(OC)c2OC)s1 | -5%
COC(=O)C(C)Oc1ccc2cc(-c3ccc(OC)cc3)c(=O)oc2c1 (stereo unspecified) | 1.1µg/mL*
CC(=O)Nc1sc(N/N=C/c2cccc(Cl)c2)nc1-c1cccs1 | 15%
COc1ccc(NC(=O)c2oc3ccccc3c2NC(=O)COc2ccccc2)cc1OC | -1%
Brc1ccc2nc(N3CCN(c4nc5ccccc5s4)CC3)sc2c1 | -6%
COC(=O)C(C)Sc1ccc2nnc(-c3ccccc3)n2n1 (stereo unspecified) | -15%
Cc1nnc(NC(=O)c2cc3c(=O)n4cccc(C)c4nc3s2)s1 | -2%
CCOc1ccccc1-n1c(C)c(C)n2c3c(=O)n(C(C)C(C)=O)c(=O)n(C)c3nc12 (stereo unspecified) | 0%
CC(C)c1nnc(NC(=O)CC2CCS(=O)(=O)C2)s1 (stereo unspecified) | 2%
COc1ccc2cc(CCNC(=S)Nc3ccc(Cl)cc3)c(=O)[nH]c2c1 | -7%
Cc1occc1-c1nnc2sc(-c3ccc(-c4ccccc4Cl)o3)nn12 | 12%
Fc1cccc2sc(N3CCCC3)nc12 | 86µg/mL*
CSc1nc2ccc3nc(NC(=O)C4COc5ccccc5O4)sc3c2s1 (stereo unspecified) | 18%
O=C(/C=C/c1ccccc1)Nc1nnc(-c2ccc(F)cc2)o1 | 84%
COc1cccc(C(=O)Nc2sc3c(c2C(N)=O)CCN(C(C)=O)C3)c1 | 28%
O=C(Nc1nnc(-c2ccc3c(c2)CCCC3)o1)c1c(F)cccc1F | 4.5µg/mL*
COc1ccc(-n2ccnc2SCC(=O)NCc2ccc3c(c2)OCO3)cc1 | 1%
CCOc1ccccc1NC(=O)CSc1nncc(=O)n1N | -16%
O=C(CCSc1ccccc1)Nc1nc2ccc3ccccc3c2s1 | 1%
COc1cccc(OCC(=O)Nc2c(C(=O)Nc3ccccc3)oc3ccccc23)c1 | 5%
O=C(Cc1cccc2ccccc12)Nc1nnc(-c2ccc(Cl)cc2Cl)s1 | 3%
Cc1ccc2nc(NC(=O)CSc3nc4c(c(=O)n3-c3ccccc3)SCC4)sc2c1 | 10%
CCNC(=O)c1cc2c(=O)n3ccccc3nc2n(Cc2ccc(OC)cc2)c1=N | -9%
Cc1ccc(S(=O)(=O)CCC(=O)Nc2nc(-c3cccc([N+](=O)[O-])c3)cs2)cc1 | -1%
Cc1cccc(C(=O)NCCc2cc3ccc(C)c(C)c3[nH]c2=O)c1 | -5%
O=C(Nc1nnc(-c2ccccc2Cl)s1)c1ccc(F)cc1 | 11%
Cc1cc(SCC(=O)c2ccc(Cl)cc2)nc(=O)[nH]1 | -13%
O=C(Nc1c(C(=O)Nc2ccc(F)cc2)oc2ccccc12)c1cccc(Cl)c1 | -3%
Cc1ccc(-c2nnc(SCC(=O)Nc3cc(C)on3)o2)cc1 | 4µg/mL*
CC1CCc2sc(NC(=O)c3cccc(Cl)c3)c(C(N)=O)c2C1 (stereo unspecified) | 4%
COc1ccc(CNC(=O)C(=O)NCC(c2cccs2)N2CCc3ccccc3C2)cc1 (stereo unspecified) | 11%
Fc1cccc(Cl)c1CSc1nnc2ccc(-c3cccnc3)nn12 | 19%
O=C(NCc1ccccc1)N1CCn2cccc2C1c1cccnc1 (stereo unspecified) | -8%
Cc1ccc(-c2nnc3ccc(SCC(=O)Nc4ccc(C(F)(F)F)cc4)nn23)cc1 | -8%
COc1ccc2nc(-c3ccc(OC)c(NS(=O)(=O)c4ccc(F)c(C)c4)c3)cn2n1 | -9%
O=C(Cn1c(=O)c2ccc(Cl)cc2n2nncc12)NCc1ccc(F)cc1 | 5%
CCCCC(=O)Nc1nnc(-c2cc(Cl)ccc2Cl)o1 | 32µg/mL*
CC1CCc2c(sc3ncnc(N4CCN(CCO)CC4)c23)C1 (stereo unspecified) | 4%
COc1ccc(NC(=O)c2oc3ccccc3c2NC(=O)c2ccc3ccccc3c2)cc1 | 14%
CCc1cc2c(=O)n(C(C)C(C)=O)cnc2s1 (stereo unspecified) | 6%
Cn1c(=O)c2c(nc(N3CCN(c4ccccc4)CC3)n2CCSc2nnnn2-c2ccccc2)n(C)c1=O | 5%
CC(C)c1ccc(/C=N/NC(=O)CSc2n[nH]c(=O)[nH]c2=O)cc1 | -7%
Cc1ccc2[nH]c(=O)c(N3CCOCC3)c(-c3ccccc3)c2c1 | 3%
CC(C)/C(=N/O)c1ccc(OCCOc2ccc(C#N)cc2)cc1 | 13%
Cc1cccc(NS(=O)(=O)c2c[nH]c(=O)[nH]c2=O)c1C | -6%
Cc1csc2ncc(C(=O)NCc3ccccc3)c(=O)n12 | 2%
Cc1cccc(NC(=O)CS(=O)(=O)c2cn(Cc3cccc(F)c3)c3ccccc23)c1 | -2%

# Looked up by structure from the entries so far:
mol | Mtb growth
O=C(Nc1ccc2oc(=O)ccc2c1)c1ccc(F)cc1 | -14%
CCOc1cc(C(=O)Nc2cccc3c2C(=O)NC3=O)cc(OCC)c1OCC | -11%
O=C(Nc1nnc(C2=COCCO2)o1)c1cccc(Cl)c1 | 3.5µg/mL*
COc1cc(OC)cc(C(=O)NCCSc2ncc(-c3ccccc3)[nH]2)c1 | 2%
Cc1ccc(-c2nnc(SCC(=O)Nc3cc(C)on3)o2)cc1 | 4µg/mL*

# Continued:
mol | Mtb growth
COc1ccc(OC)c2sc(N(CCCn3ccnc3)C(=O)c3cccs3)nc12 | 77%
Cc1ccc(C2=NC(C)(C)N=C2SCC(=O)Nc2ccc(C)c(C)c2)cc1 | 23µg/mL*
O=C(Cn1cnc2c(cnn2-c2cccc(Cl)c2)c1=O)Nc1cccc(Cl)c1 | -4%
CC1CCc2sc(NC(=O)c3ccc(Cl)s3)c(C(N)=O)c2C1 (stereo unspecified) | -7%
Cc1ccc2cc(CCNC(=O)c3cccc(Br)c3)c(=O)[nH]c2c1C | 8%
COC(=O)C1=C(C)N=c2s/c(=C3\C(=O)Nc4ccc(Br)cc43)c(=O)n2C1c1ccccc1 (stereo unspecified) | -1%
CCOC(=O)c1ccc(NC(=O)CSc2nc(N)cc(=O)[nH]2)cc1 | 33%
O=C(CSc1nccn(-c2ccc(F)cc2)c1=O)c1ccc(Cl)cc1 | 0%
O=C(Nc1nnc(-c2ccccc2)s1)c1ccco1 | 1%
COc1ccc(OC)c2[nH]c(=O)c(CCNC(=O)c3ccc(C)c(C)c3)cc12 | 0%
CCOC(=O)CCC(=O)Nc1c(C(=O)Nc2ccc(OC)cc2OC)oc2ccccc12 | 4%
CC1=CC(=C2C(=O)c3ccccc3C2=O)C=C(C)N1CCCO | -3%
COc1cccc(N2CC(NC(=O)C3c4ccccc4Oc4ccccc43)CC2=O)c1 (stereo unspecified) | 24%
COc1ccc(/C=C2\SC(=S)N(CCCCCC(=O)O)C2=O)cc1 | -8%
COc1ccc(NC(=O)Cn2cnc3c(cnn3-c3ccc(F)cc3)c2=O)cc1OC | -1%
COc1ccccc1-c1nc(SCC(=O)NCC2CCCO2)c2c(=O)n(C)c(=O)n(C)c2n1 (stereo unspecified) | -6%
CCOC(=O)c1cc(NC(=O)CSc2nnnn2-c2ccccc2)cc(C(=O)OCC)c1 | -5%
NC(=O)c1c(NC(=O)c2ccc(Br)s2)sc2c1CCCC2 | 6%
O=c1c(NCCc2c[nH]c3ccccc23)nccn1-c1cccc(F)c1 | -3%
Cc1ccc2cc(CCNC(=O)c3ccc(C)c(C)c3)c(=O)[nH]c2c1 | -6%
Cc1ccc(S(=O)(=O)NCCc2nnc3ccc(N4CCOCC4)nn23)cc1 | -6%
COc1ccc(NC2=C(Cl)C(=O)N(c3cccc(Cl)c3)C2=O)c(OC)c1 | -12%
CC(=O)Nc1ccc(-n2c(SCC(=O)c3ccc(F)cc3)nc3sc4c(c3c2=O)CCCC4)cc1 | -6%
Cc1ccc(N2CCCn3c2nc2c3c(=O)n(CC(=O)O)c(=O)n2C)cc1 | -2%
CCOC(=O)c1ccc(NC(=O)CSc2nc3c([nH]c4ccccc43)c(=O)n2-c2ccc(F)cc2)cc1 | 56%
COc1ccc(N2C(=O)CCC2=O)cc1 | 3%
Cc1nc2sc(C(c3ccc(F)cc3)N3CCC(O)CC3)c(O)n2n1 (stereo unspecified) | -4%

# An excerpt; rates above refer to the full screens.
